# Beta apoptosis: beta cell apoptosis inhibition; INS-1E cytokine-induced death, ATP luminescence, 48 h; percent of positive-control rescue, neutral wells zero; protection from apoptosis, % (concentration not given with the values); hit rate 0.8% among 300,000;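 active = all replicates at 75% or more, or half of them and the mean; inconclusive = half reach 75% but not the mean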;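 also: 0% = cytokine-treated negative control wells and 100% = positive control rescue; higher means more ATP so stronger rescue from cytokine killing; wells of about 40 µL received 100 nL stock; the first replicate is given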
# RanGTP-Impb inh: inhibitors of RanGTP-importin-beta interaction, primary screen, biochemical, FRET, CFP-Ran, YFP-importin-beta, homogeneous; cell-free CFP-Ran/YFP-importin-beta FRET ratio; inhibition, % (no concentration beside the values); hit rate 1.1% among 300,000; AID 2216;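 active = most replicates above 15%; inconclusive = exactly half above 15%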;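 also: 0% = DMSO wells and 100% = Ran loaded with GDP instead of GTP; wells of about 40 µL received 100 nL stock; the first replicate is given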
# B2AR ag: human beta-2 adrenergic receptor agonism by FAP; P07550; Am2.2-beta2AR cells, FAP receptor internalization, flow cytometry; reference of the scale not given here; response, % (no concentration beside the values); hit rate 0.43% among 340,000; AID 504454;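 active = response above a set limit, near 3 SD of response in nonfluorescent compounds, cut at about 42% in these data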;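 also: stock transfer was 100 nL into about 11 µL; a reference agonist was the positive control; negative values mostly stem from fluorescent compounds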
# Target sequence (P07550 whole entry, looked up): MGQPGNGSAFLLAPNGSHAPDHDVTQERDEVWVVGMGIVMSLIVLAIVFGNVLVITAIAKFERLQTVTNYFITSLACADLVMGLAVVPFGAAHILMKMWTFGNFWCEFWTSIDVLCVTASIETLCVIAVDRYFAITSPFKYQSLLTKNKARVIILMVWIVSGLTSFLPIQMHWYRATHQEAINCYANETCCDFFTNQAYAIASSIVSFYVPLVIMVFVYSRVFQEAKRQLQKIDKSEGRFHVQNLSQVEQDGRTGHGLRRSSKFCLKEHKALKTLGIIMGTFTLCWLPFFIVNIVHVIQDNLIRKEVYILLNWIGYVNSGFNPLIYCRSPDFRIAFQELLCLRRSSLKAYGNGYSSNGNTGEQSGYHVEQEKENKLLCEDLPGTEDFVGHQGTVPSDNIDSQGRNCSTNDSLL
# Calb FLC: affects C. albicans growth with fluconazole; hit rate 0.57% among 300,000; AID 1979; C. albicans CaCi-2 (fluconazole-resistant clinical isolate) + fluconazole, Alamar Blue growth, 48 h; growth inhibition, % (concentration not given with the values);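 active = most replicates above 75%; inconclusive = exactly half above 75%; inactive = most below 75%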;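 also: all wells also contain fluconazole at 8 µg/ml as a sub-toxic cotreatment; 0% = median of DMSO wells and 100% = median of geldanamycin control wells; wells of about 8 µL received 7.5 nL stock; the first replicate is given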
# A1 inh: inhibitors of the anti-apoptotic protein A1, read as caspase activation. MEF A1-2A-BIM cells, Caspase-Glo 3/7 luminescence, 3 h; percent of clofoctol response, vehicle zero. caspase activation, % (test concentration not listed). hit rate 0.066% among 330,000;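 active = over half of replicate activation scores above 10%, or exactly half above 10 with the replicate mean above 10; inconclusive = replicate mean below 10 yet half the replicates above 10; inactive = over half of replicates below 10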;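 also: wells of about 30 µL received 50 nL stock; many hits fall short of the cut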
# LANA-H2B inh: blocks KSHV LANA binding to histone H2A/H2B; cell-free LANA-H2A/H2B peptide, fluorescence polarization; hit rate 0.6% among 320,000; Q9QR71; inhibition, % (concentration not given with the values); in the data active = inhibition mostly above about 10%, no sharp cut-off; inactive = mostly below about 6.7%;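 also: stock transfer was 7.5 nL into about 10 µL; 0% = median of vehicle wells and 100% = median of positive control wells; one replicate is shown; the record names a cut of 25% in any replicate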
# T cruzi repl: T. cruzi replication inhibition; T. cruzi beta-gal in NIH3T3, luminescence, 90 h; inhibition, % (no concentration beside the values); hit rate 1.4% among 300,000;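 active = mean inhibition across valid replicates above about 55%, limit read from the data; inconclusive = mean below that limit but half or more replicates reach it; inactive = mean below it, under half of replicates reach it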;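 also: signal also drops with host cell toxicity which is not excluded here; 0% = plate median of DMSO wells and 100% = zero luminescence signal; higher percent means less beta-gal luminescence so fewer parasites; stock transfer was 50 nL into about 50 µL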
# UCH37 DUB inh: inhibitors of human deubiquitinating enzyme UCH37 | Q9Y5K5 | purified proteasome/UCH37, Ub-AMC cleavage fluorescence | inhibition, % (test concentration not listed) | hit rate 0.33% among 330,000 | AID 588478;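 active = mean of two replicates above 20%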;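 also: 0% = compound-free wells with enzyme and 100% = wells lacking proteasome; stock transfer was 100 nL into about 20 µL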
# Target sequence (Q9Y5K5 whole entry, looked up): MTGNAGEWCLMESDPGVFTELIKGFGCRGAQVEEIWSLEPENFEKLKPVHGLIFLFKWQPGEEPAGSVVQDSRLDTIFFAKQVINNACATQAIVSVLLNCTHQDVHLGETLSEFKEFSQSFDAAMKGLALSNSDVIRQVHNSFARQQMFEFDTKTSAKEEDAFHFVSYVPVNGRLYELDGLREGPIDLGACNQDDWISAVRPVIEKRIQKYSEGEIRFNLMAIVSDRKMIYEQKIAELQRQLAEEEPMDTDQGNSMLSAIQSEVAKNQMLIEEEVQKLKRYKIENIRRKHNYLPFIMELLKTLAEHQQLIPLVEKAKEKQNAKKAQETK
#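 assay system = human UCH37 enzyme supplied as purified proteasome complex | amount = proteasome at 0.15 nM in the dispensed enzyme solution | schedule = 30 min compound-proteasome preincubation then 25 min substrate reaction, room temperature | measured by = fluorescence, ex 355 nm, em 460 nm | benchmarks = no-proteasome wells (full inhibition) and compound-free wells (no inhibition)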
# * hit, by the source's call; i = inactive; ? = inconclusive; · = no result given.
SMILES,Beta apoptosis,RanGTP-Impb inh,B2AR ag,Calb FLC,A1 inh,LANA-H2B inh,T cruzi repl,UCH37 DUB inh
O=C1CCCC(O)=C1N=Nc1cccc(S(=O)(=O)N2CCOCC2)c1,-1,2.6,7,6,0.2,7.0,5,2.9
CS(=O)(=O)N(Cc1cccc(CN(C(C(=O)O)c2ccccc2)S(C)(=O)=O)c1)C(C(=O)O)c1ccccc1 (stereo unspecified),-2,-0.8,5,-7,1.2,4.0,-17,2.1
O=C(Nc1ccc(Cl)c(Cl)c1)Nc1ccccn1,0,-4.2,-3,5,-0.5,3.3,10,-0.9
Cc1ccccc1CSc1nnc(-c2cccnc2)n1N,2,-1.7,-3,-6,-0.4,3.1,-14,1.9
Cc1ccc(-c2cn(-c3ccccc3F)c(=S)[nH]2)cc1,-1,3.4,-7,-22,0.2,-3.2,-19,-1.0
O=C(Nc1ccccc1)NC1CCN(Cc2nnnn2C2CCCCC2)CC1,2,4.1,-1,-1,-0.4,0.9,3,2.7
CC1CCC2(CC1)NC(=O)N(CC(=O)NC(C)c1ccc(F)c(F)c1)C2=O (stereo unspecified),-5,·,10,·,-0.3,5.9,·,4.8
O=C(NCCCN1CCOCC1)c1cc2ccccc2o1,-5,4.8,-11,0,0.4,1.0,-10,0.8
Cc1ccc(S(=O)(=O)NCC(=O)OCCOc2ccccc2F)cc1,2,·,5,·,-1.3,1.5,·,0.4
Cc1ccc(NC(=O)CN(C)S(=O)(=O)c2cccc3nsnc23)cc1C,1,-1.7,8,-12,0.3,-1.4,21,5.7
CC(=O)c1ccc(NS(=O)(=O)c2ccc3c(c2)CCC(=O)N3)cc1,7,·,-12,·,-1.5,-9.1,·,2.8
COc1cc(Cn2cnnn2)ccc1O,5,-3.5,-3,-3,0.5,0.4,-4,2.5
COc1ccc(NS(=O)(=O)c2ccc(NC(C)=O)cc2)nn1,-4,-2.3,3,15,0.7,1.9,2,4.8
CC(/C=C1\SC(=S)N(C(C(=O)O)C(C)C)C1=O)=C\c1ccccc1 (stereo unspecified),1,2.2,3,7,-0.3,-8.5,-20,9.3
O=C(O)/C(=C\c1cccc([N+](=O)[O-])c1)c1ccc(S(=O)(=O)N2CCCCC2)s1,-6,3.2,-3,3,0.4,-6.0,-1,5.9
CCOCCCNC(=S)Nc1cc(OCC)c(NC(=O)c2ccco2)cc1OCC,·,-0.8,-25,1,1.4,-6.6,-1,-0.1
Cc1cc(C)n2nc3nc(N4CCCC4)nc(-c4ccccc4)c3c2n1,-4,9.2,-16,3,-0.3,-4.7,33,-46
CCN(CC(=O)Nc1ccc(NC(C)=O)cc1)C(=O)c1cc(C)on1,-6,-5.5,-1,-7,0.6,-5.1,1,3.3
CC1(C)CC(=O)C2=C(C1)c1c(ccc3ccccc13)NC2c1ccc(OCC(=O)O)cc1 (stereo unspecified),4,7.1,-3,19,-0.1,-2.7,-10,i
COc1ccc(NC(=O)CSc2ccc3nnc(-c4ccccn4)n3n2)cc1OC,-11,-0.3,7,9,-0.1,1.2,-6,3.6
CCc1nn(CC(=O)NCCC2=CCCCC2)c(=O)c2cc3cc(F)ccc3n12,0,3.0,8,8,-2.3,-2.8,5,-4.7
O=S(=O)(c1ccc(SCc2ccc(Br)cc2)nc1)N1CCOCC1,-8,·,-3,·,1.4,4.1,·,0.0
Cc1nc2ccc(Br)cn2c(=O)c1Cl,0,-5.6,-11,-4,0.9,-1.6,-16,4.9
O=C(O)COc1ccc(/C=N/Nc2nc(Nc3ccccc3)nc(N3CCCCC3)n2)cc1,-3,1.4,1,-1,0.5,1.9,5,·
CCOc1cccc2c1OC1(C)CC2NC(=O)N1c1cccc(C(=O)N2CCN(c3ccccn3)CC2)c1 (stereo unspecified),7,0.8,-2,-4,-0.5,-3.5,0,6.5
COc1ccc(C2CC(=O)Oc3c(C(CCN4CCOCC4)c4cc(OC)c(OC)c(OC)c4)c(OC)cc(OC)c32)cc1 (stereo unspecified),2,0.0,0,-1,-1.1,-0.1,-5,-1.1
COC(=O)c1ccccc1NC(=O)c1ccccc1OC,0,3.3,-9,2,0.4,-11,8,6.7
CCN1CCN(c2ncc3c(n2)CC(c2cc(OC)c(OC)c(OC)c2)CC3=O)CC1 (stereo unspecified),41,-1.2,-2,12,0.7,3.0,6,2.1
CCOC(=O)Cn1c(C)c(C#N)c2ccccc21,-6,3.6,12,-4,0.4,2.3,-22,2.8
CCn1nc(C(=O)Nc2ccc3nc(C)sc3c2)c2ccccc2c1=O,12,-2.8,11,-5,0.3,-2.1,-15,3.3
CCCn1cnc2cc(NCc3ccc(Br)cc3)ccc21,-1,19*,-3,25,-0.2,-1.9,17,-7.8
Cc1ccc(NC(=S)/N=C(\N)Nc2nc(C)c3cc(C)c(C)cc3n2)cc1C,0,-4.5,3,-8,-0.2,-0.7,61*,6.5
COc1ccc(CNC(=O)CSc2nnc3c(n2)[nH]c2ccc(OC)cc23)cc1,-4,-0.9,7,27,0.1,6.7,-3,0.1
CCC(C)NC(=O)[C@@H]1CSC2c3ccccc3C(=O)N21 (stereo partly specified),-14,-4.3,3,1,0.5,5.8,-13,-1.5
O=C(NCCN1CCCCC1)Nc1ccc(Br)cc1,7,-1.0,0,-9,0.4,-1.0,2,0.7
O=C(O)c1cccnc1NC1CCCC1,-2,-2.6,8,-6,-0.9,2.9,-16,1.6
Cc1c(-c2ccc(Cl)cc2)oc(=O)c2c(N)n(-c3ccccc3)nc12,23,2.6,-1,-4,0.2,2.2,-1,·
O=C1NCCCC1C(=O)N1CCN(C(c2ccccc2)c2ccccc2)CC1 (stereo unspecified),-2,-4.7,-4,10,-0.2,0.7,8,2.1
c1ccc(CCNc2nc3ccccc3n3nnnc23)cc1,-3,6.0,6,0,0.2,-2.1,-3,-15
CCCn1c(CCC(=O)O)ccc1-c1ccc(F)cc1,3,-2.2,-1,1,0.5,-6.1,-3,-49
O=C(Nc1ccc(Cl)cn1)Nc1ccccc1Cl,5,0.2,-2,4,-3.5,-5.0,5,4.4
Cc1cc(Cl)ccc1C(=O)C1CCCN(C(=O)/C=C/c2cnn(C)c2)C1 (stereo unspecified),-4,-0.9,-1,16,0.6,1.7,1,0.9
COc1ccc(C2Nc3cccc4cccc(c34)N2)cc1,2,-2.9,1,23,0.2,1.1,-9,-9.3
CCN1CCCC1CNC(=O)c1ccc(N2CCCC2=O)cc1 (stereo unspecified),-3,-4.2,-2,1,0.4,-0.5,-1,-0.9
c1ccc(-c2nc(NCc3ccco3)c3oc4ccccc4c3n2)cc1,-2,3.7,-3,8,0.6,-5.9,38,0.3
COc1ccc(-n2nc3cc(C)c(NC(=O)C(C)C)cc3n2)cc1,·,-3.6,·,0,·,·,-14,-236
COC(=O)c1[nH]c2ccccc2c1NC(=O)CN1CCN(C/C=C/c2ccccc2)CC1,-1,1.0,-6,15,0.9,-7.1,35,-16
C[C@H](CO)N1C[C@H](C)[C@@H](CN(C)C(=O)Nc2ccccc2)Oc2ccc(NS(=O)(=O)c3ccccc3)cc2C1=O,-5,·,-13,·,1.4,3.2,·,3.1
CC(C)C(NC(=O)c1ccc(C(C)(C)C)cc1)C(=O)NC1=NCCS1 (stereo unspecified),·,-0.4,-2,-39,0.3,5.1,20,2.6
Cc1ccc(NC(=O)c2c(C)nc3ccccn23)cc1C,·,2.8,-1,3,-3.4,-2.3,8,1.6

# New compounds follow
SMILES,Beta apoptosis,RanGTP-Impb inh,B2AR ag,Calb FLC,A1 inh,LANA-H2B inh,T cruzi repl,UCH37 DUB inh
O=C(Nc1ccc(F)c(F)c1)C1CCCN1S(=O)(=O)c1ccc(F)cc1 (stereo unspecified),-2,-4.4,2,-14,-0.5,0.4,-14,5.1
COc1ccc(NC(=S)NC(C)Cc2cccs2)cc1 (stereo unspecified),1,-4.8,5,-4,0.1,2.3,0,5.2
COc1ccc(C(=O)Nc2nc(C)cc(C)n2)cc1[N+](=O)[O-],-3,5.5,2,10,0.3,3.9,-4,4.3
CN(CCOc1ccccc1)Cc1nc2cc(Cl)ccc2c(=O)[nH]1,0,0.2,1,-3,0.2,-0.8,3,-0.2
CCNNC(=O)C(O)(Cc1ccccc1)Cc1ccccc1,0,-1.2,-6,-6,0.5,2.5,-9,-0.9
CC1Cc2cc(C3(O)C(=O)c4ccccc4C3=O)ccc2N1 (stereo unspecified),-13,?,1,6,0.0,-1.2,5,1.8
Cn1c(SCC(=O)N2CCOCC2)nnc1-c1ccc2ncccc2c1,-2,5.1,6,-1,-0.9,5.6,-25,3.9
Cc1cc(NC(=O)c2cccc(Br)c2)no1,·,-0.1,0,-35,-2.7,-3.0,1,7.1
COc1ccc(CN(C)CC(=O)Nc2ccc(Cl)cc2F)c(OC)c1,3,?,·,0,0.5,-4.1,3,2.1
Cc1ccc(-c2nnc(SCC(=O)N(CC(C)C)c3c(N)n(Cc4ccccc4)c(=O)[nH]c3=O)n2N)cc1,-1,-1.9,-1,-5,-0.4,-2.2,0,1.2
CCN(CC)S(=O)(=O)c1ccc2oc(C(=O)NCc3ccc(C)cc3)c(C)c2c1,-8,2.6,19,-2,-0.3,3.4,30,2.5
Cc1c(C(=O)NCCN2C(=O)S/C(=C\c3cccnc3)C2=O)cccc1[N+](=O)[O-],-12,-1.6,-2,-5,-0.5,-1.7,12,8.1
COc1cc(C(=O)CSc2nccn2C)cc(OC)c1OC,-4,-1.6,-3,6,-0.4,4.1,-11,4.5
COc1ccccc1-n1c(=O)c2c3c(sc2n2c(=S)[nH]nc12)CCC3,7,8.3,5,38,0.6,2.7,11,0.1
O=C(O)CC(NC(=O)c1cccc([N+](=O)[O-])c1)c1ccc2c(c1)OCO2 (stereo unspecified),·,1.8,0,28,0.7,3.2,-12,2.6
O=C(Nc1ccccc1)NC1(C(=O)N2CCC(O)CC2)CCCCC1,4,1.1,3,-5,0.1,1.6,-8,0.1
O=C(c1cnc(Cl)c(Cl)c1)N1CCN(S(=O)(=O)c2ccc(F)cc2)CC1,4,1.3,6,5,1.7,-4.7,-4,1.3
O=[N+]([O-])c1cc(S(=O)(=O)CCCN2CCOCC2)ccc1F,0,2.4,8,12,1.0,5.3,-21,6.7
O=c1[nH]ncc(NCc2ccc(Cl)cc2)c1Cl,-3,5.2,1,4,-0.5,1.9,-12,4.6
O=C(CCc1ccccc1)NC(NC(=S)Nc1cccc(Cl)c1)C(Cl)(Cl)Cl (stereo unspecified),15,-0.9,0,-14,1.1,3.3,11,1.0
COc1ccc(OC)c(S(=O)(=O)N2CCC(C(=O)NCc3ccccc3OC)CC2)c1,-2,25,-6,-4,0.7,2.4,3,3.8
O=C(NC1CCCCC1)C(c1ccc(O)cc1)N(CC1CCCO1)C(=O)C1COc2ccccc2O1 (stereo unspecified),0,0.6,-6,-3,-0.2,2.0,38,1.1
O=C(Cc1ccc(Br)cc1)c1ccc(O)cc1O,0,0.0,-6,-45,-2.1,-0.7,-9,-3.8
